Assay outcomes deposited in PubChem by several laboratories.
RGS16-Gao = RGS16-Galphao interaction regulator (human). binding response (% of control), % at 10 µM. 220,000 tested, 0.38% active. bead-based flow cytometry RGS16-Galphao binding, fluorescence; actives lie on both sides. AID 1441;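 active = below 25% or above 175%, edge rows of some plates excepted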;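 also: Galphao activated by GDP with aluminum fluoride before binding; 100% = wells without compound and 0% = beads without RGS; some results beyond the cut were filed as inactive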
Target sequence (O15492 whole entry, looked up): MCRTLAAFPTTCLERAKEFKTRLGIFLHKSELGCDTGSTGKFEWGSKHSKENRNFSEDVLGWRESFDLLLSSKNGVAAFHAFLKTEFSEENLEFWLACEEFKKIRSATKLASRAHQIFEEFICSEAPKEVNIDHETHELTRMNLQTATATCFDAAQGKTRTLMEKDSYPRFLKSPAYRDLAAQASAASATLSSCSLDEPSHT
Target sequence (P09471 whole entry, looked up): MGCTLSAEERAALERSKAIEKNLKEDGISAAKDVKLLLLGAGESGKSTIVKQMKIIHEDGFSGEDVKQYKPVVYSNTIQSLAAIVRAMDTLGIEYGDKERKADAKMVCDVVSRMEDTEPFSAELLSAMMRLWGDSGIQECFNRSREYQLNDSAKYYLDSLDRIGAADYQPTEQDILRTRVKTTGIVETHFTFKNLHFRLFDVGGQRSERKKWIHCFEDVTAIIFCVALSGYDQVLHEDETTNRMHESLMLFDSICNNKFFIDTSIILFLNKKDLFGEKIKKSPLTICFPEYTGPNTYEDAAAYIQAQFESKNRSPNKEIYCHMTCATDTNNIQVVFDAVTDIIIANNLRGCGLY
GALR2 agonist = GALR2 (human) receptor agonism; activation, %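 (tested at 5 µM)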; 140,000 tested, 0.48% active; GALR2-expressing cells, agonist activation read-out; O43603; AID 803;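 active = above mean plus 3 SD of all compounds, about 5% in these data, not always enough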;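 also: 0% = vehicle buffer wells and 100% = reference agonist at full effect; tested in CHO reporter cells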
Target sequence (O43603 whole entry, looked up): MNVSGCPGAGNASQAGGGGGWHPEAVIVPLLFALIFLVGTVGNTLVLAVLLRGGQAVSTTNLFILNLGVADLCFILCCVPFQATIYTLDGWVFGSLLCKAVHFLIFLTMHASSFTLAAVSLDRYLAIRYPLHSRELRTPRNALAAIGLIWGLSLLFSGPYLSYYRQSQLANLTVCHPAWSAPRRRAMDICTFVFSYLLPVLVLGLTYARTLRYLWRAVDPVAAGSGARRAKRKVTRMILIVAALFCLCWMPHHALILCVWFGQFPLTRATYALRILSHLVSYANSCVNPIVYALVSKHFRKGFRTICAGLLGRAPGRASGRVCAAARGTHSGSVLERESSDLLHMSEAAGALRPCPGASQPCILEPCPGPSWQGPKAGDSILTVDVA
Insulin prom inh = TRM-6 insulin promoter activity inhibition; inhibition, % at 2 µM; TRM-6 cells (human fetal islet line), insulin promoter-eGFP reporter, imaging; reporter expression induced with tamoxifen; 130,000 tested, 0.9% active;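 active = inhibition above the mean plus 3 SD, with well images judged a real hit on visual review, cut at about 60% in these data, passing the limit was not always enough; inconclusive = inhibition over the cutoff but images rejected on review; inactive = inhibition not above the cutoff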
PKD1 inh = PKD1 (human) kinase inhibition | inhibition, %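 (about 10 µM by stock and volumes)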 | Q15139 | 200,000 tested, 0.056% active | AID 797 | PKD1 kinase fluorescence polarization assay;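 active = inhibition of 50% or more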;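 also: controls were vehicle for no effect and a reference inhibitor for full effect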
HSV replic up = increases HSV replication in cells | HSV replication augmentation in cells, fold increase | 220,000 tested, 0.005% active | maximum fold increase;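 active = peak rise of 1.5-fold or more in the series; inconclusive = self-fluorescent or not available for retest; tested in PC3 cells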;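 also: first round at 10 µM; read as green reporter fluorescence; hits show the peak of a series up to 25 µM; 1 = signal of infected wells without compound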
Insulin prom inh cell count = further read-out of Insulin prom inh, marked with its call; normalized cell count, %; measured here: cell count, toxicity; reference of the scale not given here;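 cells exposed to compound for 48 h; stained nuclei by imaging scaled within each plate; lower means fewer cells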
HSV replic up primary fold = recorded beside HSV replic up, whose call it bears; fold increase; compound at 10 µM; measured here: primary screen fold increase 10 uM; tested in PC3 cells;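 GFP signal in the first replicate; 1 = infected wells without compound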
Active calls of the source: *; i = inactive; ? = inconclusive; . = no result given.

SMILES	RGS16-Gao	GALR2 agonist	Insulin prom inh	Insulin prom inh cell count	PKD1 inh	HSV replic up	HSV replic up primary fold
CCOC(=O)c1cc2c(C(F)(F)F)cc(-c3ccccc3)nc2o1	100	-1.9	-7	90	4	i	0.98
CN(C)c1ccc(/C=C2\SC(=S)N(Nc3ncc(C(F)(F)F)cc3Cl)C2=O)cc1	123	-2.5	-63	137	69*	?	.
CC(C)N(C(=O)CN1C(=O)C(=O)c2ccccc21)c1ccccc1	96	.	25	94	0	i	0.82
O=C(Cc1csc(Nc2nc(=S)[nH]c3ccccc23)n1)NCCCN1CCN(c2cccc(Cl)c2)CC1	104	.	.	.	-4	i	0.65
CN(C(=O)COC(=O)C1CCN(S(=O)(=O)c2cccs2)CC1)C1CCS(=O)(=O)C1 (stereo not drawn)	98	-1.6	43	116	2	i	0.95
Cc1noc(C)c1Cc1c(Cl)cccc1Cl	101	-2.3	17	136	-4	i	1
Cc1cccc(NC(=S)NCc2ccc3c(c2)OCO3)c1	105	0.7	-14	78	2	i	0.95
Cc1cc2nc(SCC(=O)Nc3ccccc3C(=O)O)[nH]c2cc1C	102	.	-20	70	0	i	1
COc1ccc2nc(SCC(=O)Nc3ccc4c(c3)CCC4)[nH]c2c1	109	-0.3	.	.	-6	i	0.94
O=C(CCC1CCCC1)NCCCN1CCOCC1	106	-1.2	21	69	4	i	0.79
O=C(O)CN1C(=O)NC2NC(=O)NC21 (stereo not drawn)	110	-1.7	38	125	-4	i	0.78
O=C(NC1=NCCS1)c1ccc([N+](=O)[O-])cc1Cl	106	.	29	122	-6	i	0.94
Cc1nc(C)c(-c2nnc(-c3ccc(C(C)(C)C)cc3)o2)cc1C(=O)NN	100	-0.7	.	.	-4	i	0.57
Cc1ccc(-n2cc(CN(C)CCc3cn[nH]c3)c(-c3cccc(C)c3)n2)cc1	101	.	.	.	2	i	0.7
Cc1ccc(N(CC(=O)N/N=C/c2cc(C)n(-c3ccccc3C)c2C)S(C)(=O)=O)cc1	97	0.0	18	105	-7	i	1.1
O=C(Nn1c(-c2ccc(Cl)cc2)nc2ccccc2c1=O)c1cccnc1Cl	123	-1.0	-19	58	-8	i	1.1
CCN(c1ccccc1)S(=O)(=O)c1ccc(OC)c(OC)c1	104	0.5	.	.	-3	i	1.1
O=C1C2CC=CCC2C(=O)N1c1ccc(OCC(O)Cn2nnc3ccccc32)cc1 (stereo not drawn)	110	-2.1	3	117	-2	i	0.74
CCc1ccc(C(=O)N/N=C/c2cccc3ccccc23)nc1	76	-1.7	31	87	-13	i	0.94
COc1ccc(-n2c(SCC(=O)N3CCOCC3)nnc2C(C)N2CCCCC2)cc1 (stereo not drawn)	100	.	.	.	.	i	0.95
Cc1cc(NC(=O)c2ccccc2)n(C(C)(C)C)n1	100	.	.	.	.	i	0.98
O=C(O)CCSc1nc2ccc(Br)cc2[nH]1	100	-2.5	.	.	-13	i	0.99
COc1ccc2[nH]c(=O)c(CN(CCN(C)C)C(=O)NCc3ccccc3)cc2c1	99	-0.7	.	.	-7	i	0.87
CC(=O)Nc1ccc2nc(C)n(Cc3ccc(Cl)cc3)c(=O)c2c1	121	-0.3	46	123	-1	i	0.98
O=C(NCc1ccco1)c1ccc2c(c1)C(=O)N(Cc1ccccc1)C2=O	98	-2.0	33	99	-16	i	0.97
Cc1nc(C(F)(F)F)c(C(=O)NC(=O)Nc2ccccc2)s1	102	-1.5	.	.	-6	i	0.86
Cc1ccc(/C=N/NC(=O)CSc2nc3ccccc3n2Cc2ccccc2)o1	104	-0.3	.	.	2	.	.
CCc1nnc(NC(=O)CN2CCN(c3nc(-c4ccccc4)cs3)CC2)s1	100	-0.5	-7	102	15	i	0.89
COc1ccc(C2CC(c3ccc(F)cc3)Nc3nc(N)nn32)cc1 (stereo not drawn)	102	-1.0	.	.	1	i	1.1
CC/C(=N\NC(=O)OC)c1ccc(OC(F)F)cc1	98	.	.	.	-3	i	1

Compound profiles (already shown):
Shown for COc1ccc2[nH]c(=O)c(CN(CCN(C)C)C(=O)NCc3ccccc3)cc2c1 : RGS16-Gao: 99; GALR2 agonist: -0.7; Insulin prom inh: .; Insulin prom inh cell count: .; PKD1 inh: -7; HSV replic up: i; HSV replic up primary fold: 0.87
Shown for CC(=O)Nc1ccc2nc(C)n(Cc3ccc(Cl)cc3)c(=O)c2c1 : RGS16-Gao: 121; GALR2 agonist: -0.3; Insulin prom inh: 46; Insulin prom inh cell count: 123; PKD1 inh: -1; HSV replic up: i; HSV replic up primary fold: 0.98
Shown for Cc1nc(C(F)(F)F)c(C(=O)NC(=O)Nc2ccccc2)s1 : RGS16-Gao: 102; GALR2 agonist: -1.5; Insulin prom inh: .; Insulin prom inh cell count: .; PKD1 inh: -6; HSV replic up: i; HSV replic up primary fold: 0.86

More entries:
SMILES	RGS16-Gao	GALR2 agonist	Insulin prom inh	Insulin prom inh cell count	PKD1 inh	HSV replic up	HSV replic up primary fold
O=C(Nc1ccc(N2CCOCC2)c(S(=O)(=O)Nc2ccc(Cl)cc2)c1)c1cnccn1	89	.	.	.	.	i	0.85
COCC(=O)Nc1ncc(S(=O)(=O)c2ccc([N+](=O)[O-])cc2)s1	37	.	45	181	0	i	0.95
COc1ccc(C(=O)c2ccc(Cl)cc2Cl)cc1	101	-0.3	-38	117	-2	i	0.91
COc1ccc(/C=C2/SC(=O)N(NS(=O)(=O)c3ccccc3)C2=S)cc1OC	104	-2.4	25	93	-4	i	0.86
CCOC(=O)c1cnc(SC2CC(=O)N(c3ccccc3)C2=O)nc1N (stereo not drawn)	107	-1.0	-60	114	6	i	0.96
CCOc1cccc(-c2nnc(SCC(=O)Nc3cc(C)ccc3OC)n2N)c1	103	-2.6	-23	136	-6	i	0.72
Cc1c(Cl)cccc1NC(=S)N(CCCN1CCOCC1)Cc1ccco1	106	.	-47	80	-2	i	0.96
CCCNc1nc2c(c(=O)n(C)c(=O)n2C)n1CCc1ccccc1	95	-1.4	.	.	0	i	0.91
O=C(CCNS(=O)(=O)c1cccc2nsnc12)NCCC1=CCCCC1	102	0.1	.	.	-15	i	0.94
CC(=NCCc1c(C)[nH]c2ccc(OC(F)(F)F)cc12)C1=C(O)CC(c2ccccc2)CC1=O (stereo not drawn)	104	.	33	100	0	i	0.62
Cc1nc(/N=C(\N)NC(=O)c2ccccc2)nc2ccccc12	104	-0.2	-7	62	-15	i	0.83
Cc1nn(-c2cc(N3CCNCC3)ccc2[N+](=O)[O-])c(=O)c2ccccc12	103	-0.5	26	83	-10	i	1
N=c1c2c3c(sc2nc2n1CCCCC2)CCCC3	99	-0.6	-281	67	-1	i	0.79
CCn1c2ccccc2c2cc(NS(=O)(=O)c3ccccc3C)ccc21	96	-2.3	-18	75	15	i	0.72
CCOc1cc(/C=C2\C(=O)NN(c3ccccc3)C2=O)cc([N+](=O)[O-])c1O	105	.	-7	129	2	i	0.93
C=CCOc1ccc(/C=C2\C(=N)N3N=C(S(=O)(=O)CC)SC3=NC2=O)cc1OC	98	.	12	91	-2	i	0.98
CCCNC(=S)N1CCN(C(c2ccccc2)c2ccccc2)CC1	88	-1.0	26	77	-6	i	0.97
CN1CCC(=NNC(=O)C(=O)NC2CCCCC2)CC1	97	-3.0	17	111	0	i	0.94
CC(C(=O)Nc1ncc2c(n1)CC(C)(C)CC2=O)N1C(=O)c2ccccc2C1=O (stereo not drawn)	112	-0.6	-30	106	4	i	1
CC1=C(C(=O)OCc2ccccc2)C(c2ccc(Cl)cc2)NC(=O)N1CCCCCC(=O)O (stereo not drawn)	101	-0.6	24	105	-7	i	0.74
CC(=O)c1cccc(NC(=O)c2nccnc2C(=O)O)c1	104	0.0	.	.	-7	i	1.1
Nc1nc(NCc2ccco2)nc(N2CCCCCC2)c1[N+](=O)[O-]	107	2.2	-10	118	14	i	1
CCOC(=O)C1CCCN(C(=O)c2cc(-c3ccc(C)cc3)nc3ccccc23)C1 (stereo not drawn)	102	.	.	.	2	i	0.69
Cc1ccc2nc(CSc3nnc(Cc4cccs4)n3C3CCCCC3)cc(=O)n2c1	101	-1.5	.	.	6	i	0.95
Cc1ccc(S(=O)(=O)Cn2nnnc2C(CC(C)C)N2CCN(c3ccc(F)cc3)CC2)cc1 (stereo not drawn)	108	-2.5	-10	56	-2	i	0.88
Cc1ccc(Cl)cc1NC(=S)N1CCC(c2ccccc2)C1 (stereo not drawn)	110	.	.	.	-4	i	0.95
O=C(c1ccc(Cl)c(F)c1F)N1CCCC1	103	-3.6	60	143	0	i	0.88
CC(C)CCn1c(NCCN(C)C)nc2c1c(=O)[nH]c(=O)n2C	106	-1.2	.	.	-13	i	1
Cc1c(-c2ccccc2)oc2c(C(=O)OCC(=O)Nc3cccc(F)c3)cccc2c1=O	114	-1.1	0	112	-6	i	0.87
COC(=O)COc1ccc(S(=O)(=O)N2CCOCC2)cc1C	113	-1.1	-60	18	-6	i	1.1
COc1ccccc1CNC(=O)c1cc2sccc2n1C	104	0.3	.	.	-2	i	0.95
CCOC(=O)C1=C(C)NC(=O)NC1c1ccc(OC(=O)c2ccco2)cc1 (stereo not drawn)	103	-1.4	31	82	-5	i	0.9
Cc1ccc(OCc2ccc(Br)cc2)c([N+](=O)[O-])n1	103	.	-37	145	-6	i	1
CCNc1nc2c(c(=O)[nH]c(=O)n2C)n1Cc1ccc(F)cc1	87	-0.3	.	.	4	i	0.67
CCc1ccc(N2CC(C(=O)OCC(=O)NC3CCS(=O)(=O)C3)CC2=O)cc1 (stereo not drawn)	105	2.1	62	80	-6	i	0.92
CCOC(=O)c1cccc(NC(=O)CSc2nnc(C3CCCCC3)n2C)c1	104	-0.3	-43	148	7	i	0.9
COc1ccccc1-n1c(N)cc(=O)nc1SCC(=O)Nc1cc(C)on1	96	.	8	122	5	i	0.93
O=C(/C=C\c1ccccc1[N+](=O)[O-])Nc1ccccc1	96	.	.	.	-6	i	1.1
O=C(Nc1ccc(N2CCOCC2)cc1)C1CC(=O)N(c2ccc(Cl)cc2)C1 (stereo not drawn)	101	.	.	.	0	i	0.89
CC(=O)c1ccc(OCC(O)CN2CCC(C)CC2)cc1 (stereo not drawn)	102	-0.8	.	.	-7	i	0.8
CCC(CC)C(=O)OCC(=O)Nc1cccc(S(=O)(=O)N(C)c2ccccc2)c1	98	.	47	101	-1	i	0.96
Cc1nc(NCCNC(=O)c2ccco2)c2c(C)c(C)sc2n1	104	0.8	32	88	-9	i	0.87
Cc1cccc(NC(=S)NC2CC3CCCC(C2)N3Cc2cccs2)c1 (stereo not drawn)	98	-1.5	.	.	-2	i	1.2
NC1=C(c2ccc(F)cc2)C(=O)CS1	85	-1.1	.	.	-10	i	1.1
COc1ccc(S(=O)(=O)N2CCCN(CC(=O)Nc3ccc4c(c3)OCO4)CC2)cc1	97	0.1	12	94	-9	.	.
Cc1ccc(-c2ccc(=O)n(CCC(=O)NCCN3CCCCC3C)n2)cc1 (stereo not drawn)	99	-0.4	62	163	-4	i	0.95
C[C@H]1CCC[C@@]2(O[C@@H](CCO)C[C@@H](O)[C@@H]2O)O1	94	.	.	.	.	i	0.81
CCN(CC)S(=O)(=O)c1ccc(O)c(C(=O)OCC(=O)N(C)Cc2ccccc2)c1	106	-3.5	0	109	0	i	0.95
CC(=O)c1ccc(-c2ccc(/C=C(/Sc3n[nH]c(C)n3)C(=O)O)o2)cc1	96	.	.	.	.	?	.
CC1CCC2(CC1)NC(=O)N(NC(=O)CCl)C2=O (stereo not drawn)	107	.	43	107	-4	i	0.98

Records listed above shown as hits in PKD1 inh.
SMILES	RGS16-Gao	GALR2 agonist	PKD1 inh	HSV replic up	HSV replic up primary fold
CN(C)c1ccc(/C=C2\SC(=S)N(Nc3ncc(C(F)(F)F)cc3Cl)C2=O)cc1	123	-2.5	69*	?	.

New compounds follow:
SMILES	RGS16-Gao	GALR2 agonist	Insulin prom inh	Insulin prom inh cell count	PKD1 inh	HSV replic up	HSV replic up primary fold
COc1ccc(S(=O)(=O)N2CCN(C3Cc4ccccc4C3)CC2)cc1	107	-1.0	0	88	-8	i	0.95
CC1=CC(C)(C)NC(=S)N1c1ccccc1C	105	.	14	69	-6	i	0.91
CC1CC(C)CN(C(=S)SCc2nc(N)nc(Nc3ccccc3)n2)C1 (stereo not drawn)	99	.	.	.	.	i	0.95
O=C(Nc1ncc(Cc2ccccc2Cl)s1)C1CCCO1 (stereo not drawn)	39	1.5	44	46	0	i	0.85
O=C(NCCCN1CCCC1=O)c1cc(-c2ccc3c(c2)OCO3)nc2ccccc12	108	.	.	.	-2	i	0.99

Another view of some results above:
Order of results – RGS16-Gao | GALR2 agonist | Insulin prom inh | Insulin prom inh cell count | PKD1 inh | HSV replic up | HSV replic up primary fold
> COc1ccc(S(=O)(=O)N2CCN(C3Cc4ccccc4C3)CC2)cc1
  107 | -1.0 | 0 | 88 | -8 | i | 0.95
> CC1CC(C)CN(C(=S)SCc2nc(N)nc(Nc3ccccc3)n2)C1 (stereo not drawn)
  99 | . | . | . | . | i | 0.95

Compounds as they come. About 1.3% of those tested had a hit in this group.
